Screens: PubChem, Broad Institute
AF4-AF9 inh: blocks AF4 peptide binding to human AF9; P42568; AlphaScreen, biotin-AF4 peptide binding to FLAG-AF9; inhibition, % at 10 µM; 0.47% of 350,000 active; AID 651704;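 active means every replicate reaching a set inhibition limit, whatever the replicate mean, cut at about 25% in these data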;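 further: 0% = plate neutral control median and 100% = total signal loss; the record names both 10 and 1 µM as test concentration; the first replicate is given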
Target sequence (P42568 whole entry, looked up): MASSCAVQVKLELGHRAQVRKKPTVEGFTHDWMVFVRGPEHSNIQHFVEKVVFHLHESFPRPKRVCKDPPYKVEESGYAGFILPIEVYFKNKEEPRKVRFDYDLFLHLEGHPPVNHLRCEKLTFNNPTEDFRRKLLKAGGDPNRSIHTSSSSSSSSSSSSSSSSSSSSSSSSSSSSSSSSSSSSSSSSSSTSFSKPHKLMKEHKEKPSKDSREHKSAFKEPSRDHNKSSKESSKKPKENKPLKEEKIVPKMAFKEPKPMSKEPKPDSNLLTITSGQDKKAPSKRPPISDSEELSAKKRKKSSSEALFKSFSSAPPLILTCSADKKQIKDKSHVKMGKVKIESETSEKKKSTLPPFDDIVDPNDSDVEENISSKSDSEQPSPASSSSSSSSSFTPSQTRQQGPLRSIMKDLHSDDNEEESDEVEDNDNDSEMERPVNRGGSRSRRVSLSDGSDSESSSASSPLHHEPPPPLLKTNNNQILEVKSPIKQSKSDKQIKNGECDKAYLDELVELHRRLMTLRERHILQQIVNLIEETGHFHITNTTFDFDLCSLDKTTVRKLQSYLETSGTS
rRNA inh HTS: selective bacterial rRNA inhibition in E. coli; 1.6% of 350,000 active; E. coli WT GFP vs humanized-ribosome RFP mutants, fluorescence, 24 h; hits give low values; DMSO median 0, no signal -100; GFP signal change (wild-type ribosome), % (test concentration not listed);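 active means significant combined selectivity score with lowered wild-type GFP, culture density cut under 30%, mutant RFP and density less affected; inactive means any of these conditions unmet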; further: one replicate is shown; some compounds called inactive have numbers as strong as hits
rRNA inh HTS OD600: second read-out of rRNA inh HTS, no call of its own (marks repeat the call); OD600 change, %; measured here: OD600 growth;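 optical density of the mix in the first replicate; 0 = DMSO median and -100 = no signal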
rRNA inh HTS RFP: recorded beside rRNA inh HTS, whose call it bears; RFP signal change, %; measured here: RFP humanized mutant strains;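 first replicate; 0 = DMSO median and -100 = no signal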
The depositor's hits bear a star. These rows are one share of the data, so the mix of outcomes need not match the whole.

Abbreviations – A = AF4-AF9 inh; B = rRNA inh HTS; C = rRNA inh HTS OD600; D = rRNA inh HTS RFP
Cc1ccc(S(=O)(=O)Nc2ccc3c(c2)CC(=O)N([C@H](C)CO)C[C@H](C)[C@H](CN(C)C(=O)Nc2ccc4c(c2)OCO4)O3)cc1
  A = 1.1	B = 2	C = 8	D = 3.5

C[C@@H]1CN([C@H](C)CO)C(=O)c2cc(NS(=O)(=O)c3ccccc3)ccc2O[C@H]1CN(C)C(=O)Nc1ccc(F)cc1
  A = -2.3	B = 2	C = 1	D = 0.7

COc1cccc(C(=O)N2C[C@H]3[C@@H](c4ccccc42)[C@@H](CO)N3Cc2ccccc2F)c1
  A = 1.6	B = -11	C = -11	D = 5.7

C[C@H]1CCCCO[C@@H](CN(C)C(=O)CCC(F)(F)F)[C@@H](C)CN([C@@H](C)CO)C(=O)c2cc(NC(=O)NC3CCCCC3)ccc2O1
  A = 1.2	B = -2	C = -12	D = 0.3

C[C@@H]1CN([C@H](C)CO)C(=O)c2cc(-c3cccnc3)cnc2O[C@H]1CN(C)C(=O)Nc1ccc(C(F)(F)F)cc1
  A = -0.5	B = -4	C = 8	D = 2.3

CCCn1c(SCC(=O)Nc2ccc(S(=O)(=O)N3CCOCC3)cc2)n[nH]c1=O
  A = -7.7	B = 10	C = 13	D = -1.8

COc1ccc(S(=O)(=O)Nc2ccc3c(c2)C(=O)N([C@@H](C)CO)C[C@H](C)[C@H](CN(C)C(=O)C2CCCCC2)OCCCC[C@@H](C)O3)cc1
  A = 3.1	B = 2	C = 1	D = 3.6

C[C@@H]1CN([C@H](C)CO)C(=O)c2cc(C#Cc3ccccc3)cnc2O[C@H]1CN(C)C(=O)c1ccccc1
  A = 0.3	B = -1	C = -11	D = 5.4

C[C@H]1CN([C@@H](C)CO)C(=O)Cc2cc(NS(=O)(=O)c3ccccc3)ccc2O[C@@H]1CN(C)C(=O)Nc1ccccc1
  A = -1.3	B = 4	C = 1	D = 3.8

CO[C@H]1CN(C)C(=O)c2cc(NC(=O)CC(F)(F)F)ccc2OC[C@H](C)NC[C@@H]1C
  A = -7.8	B = 2	C = 2	D = 0.7

Additional results:
Abbreviations – A = AF4-AF9 inh; B = rRNA inh HTS; C = rRNA inh HTS OD600; D = rRNA inh HTS RFP
C[C@@H]1CCCCO[C@@H](CN(C)C(=O)Nc2ccc(F)cc2)[C@@H](C)CN([C@H](C)CO)C(=O)c2cc(NS(=O)(=O)c3cccs3)ccc2O1
  A = -7.6	B = 4	C = 0	D = -1.0

C[C@H](CO)N1C[C@H](C)[C@H](CN(C)C(=O)C2CC2)Oc2ncc(C#CC(C)(C)O)cc2C1=O
  A = -5.0	B = 6	C = 3	D = -1.1

O=C(c1ccc(F)cc1)N1CC(=O)N2[C@H](CO)[C@@H](c3ccc(C#CCC4CCCC4)cc3)[C@@H]2C1
  A = -2.2	B = 4	C = 11	D = -2.9

C[C@H](CO)N1C[C@H](C)[C@H](CN(C)Cc2ccc(C(F)(F)F)cc2)Oc2ccc(NC(=O)Nc3ccc(F)cc3)cc2CC1=O
  A = 4.9	B = 4	C = 2	D = 4.8

O=C(C[C@H]1CC[C@@H](NC(=O)NC2CCCCC2)[C@@H](CO)O1)NCc1ccccc1
  A = -0.9	B = -1	C = -2	D = -1.3

Cc1ccc(NC(=O)c2ncn(CCCNCc3ccc4c(c3)OCO4)n2)cc1C
  A = 3.1	B = -3	C = 1	D = 4.8

C[C@@H]1CN([C@H](C)CO)C(=O)c2cccc(NS(=O)(=O)c3ccc(F)cc3)c2O[C@H]1CN(C)Cc1ccccc1
  A = -2.3	B = 5	C = 1	D = 1.0

C[C@@H]1CN([C@@H](C)CO)C(=O)c2cc(NS(C)(=O)=O)ccc2O[C@@H]1CN(C)S(C)(=O)=O
  A = -0.6	B = 5	C = -2	D = -0.7

CCCC#Cc1ccc2c(c1)O[C@@H](CN(C)C(=O)c1ccccc1F)[C@H](C)CN([C@H](C)CO)S2(=O)=O
  A = -1.5	B = -2	C = -21	D = 4.1

O=C(Nc1ccc2c(c1)[C@@H]1C[C@H](CC(=O)N3CCCCC3)O[C@@H](CO)[C@@H]1O2)c1cccnc1
  A = -0.8	B = -3	C = 3	D = 1.2

Carrying on:
Abbreviations – A = AF4-AF9 inh; B = rRNA inh HTS; C = rRNA inh HTS OD600; D = rRNA inh HTS RFP
N#C[C@@H]1[C@H](c2ccc(C3=CCCC3)cc2)[C@@H](CO)N1C(=O)C1CCC1
  A = -1.3	B = 0	C = 16	D = -0.4

C[C@H]1CCCCO[C@H](CN(C)Cc2ccncc2)[C@@H](C)CN([C@@H](C)CO)C(=O)c2cc(NC(=O)Nc3cccc4ccccc34)ccc2O1
  A = -0.3	B = -3	C = -6	D = 3.6

CCCN(C)C[C@@H]1OCCCC[C@H](C)Oc2ccc(N(C)C)cc2C(=O)N([C@H](C)CO)C[C@@H]1C
  A = 7.9	B = -2	C = -4	D = -2.0

O=S(=O)(N[C@@H]1CC[C@@H](CCn2cc(-c3ccccc3F)nn2)O[C@H]1CO)c1ccc(F)cc1
  A = -0.3	B = -2	C = -2	D = -2.9

C[C@H]1CN([C@@H](C)CO)C(=O)c2cccc(NC(=O)Nc3ccc(F)cc3)c2O[C@@H]1CN(C)S(C)(=O)=O
  A = -2.2	B = 4	C = 2	D = -2.3

O=C(Nc1ccc(F)cc1)N1C[C@@H]2[C@H](c3ccccc31)[C@@H](CO)N2C(=O)Cc1ccccn1
  A = -17	B = -18	C = -21	D = 7.5

COc1ccc2c3c(n(C)c2c1)[C@H](CO)N(C(=O)C1CCC1)CC31CN(Cc2cccc(F)c2)C1
  A = 14	B = -30	C = -69	D = 13

Cc1noc(C)c1S(=O)(=O)N(C)C[C@H]1Oc2ccc(NC(=O)NC3CCCCC3)cc2CC(=O)N([C@@H](C)CO)C[C@@H]1C
  A = 0.1	B = -1	C = -2	D = 1.9

N[C@H]1CC[C@@H](CCn2cc(-c3ccccn3)nn2)O[C@H]1CO
  A = 2.4	B = 0	C = 0	D = -0.2

COc1ccccc1C(=O)Nc1ccc2c(c1)C(=O)N(C)C[C@H](OC)[C@H](C)CN(C)[C@@H](C)CO2
  A = -2.1	B = -1	C = 0	D = 0.9

Later entries
Abbreviations – A = AF4-AF9 inh; B = rRNA inh HTS; C = rRNA inh HTS OD600; D = rRNA inh HTS RFP
O=S(=O)(NCC[C@H]1CC[C@H](NS(=O)(=O)c2ccccc2Cl)[C@H](CO)O1)c1ccc(Cl)cc1
  A = -3.6	B = 2	C = -14	D = 3.3

CC1CCN(C(=O)c2ncn3c2C(=O)NC[C@@H]3C)CC1
  A = -1.3	B = -2	C = 5	D = -0.8

N#C[C@@H]1[C@H](c2ccccc2C2=CCCCC2)[C@H](CO)N1C(=O)Cc1ccncc1
  A = -0.9	B = -9	C = -11	D = 3.7

COCC(=O)N(C)C[C@@H]1Oc2cc(C3=CCCCC3)ccc2S(=O)(=O)N([C@@H](C)CO)C[C@@H]1C
  A = 3.1	B = -1	C = 2	D = 2.1

C[C@H]1CN([C@@H](C)CO)C(=O)c2cc(NC(=O)Nc3ccccc3)ccc2O[C@@H]1CN(C)Cc1ccc(Oc2ccccc2)cc1
  A = -0.9	B = 2	C = 7	D = 0.8

COc1ccc(S(=O)(=O)Nc2ccc3c(c2)CC(=O)N([C@@H](C)CO)C[C@H](C)[C@H](CN(C)Cc2ccncc2)O3)cc1
  A = -0.7	B = -2	C = 6	D = -0.8

CC(C)(C)C(=O)c1c(N)[nH]c(C(=O)c2ccccc2)c1-c1cc2ccccc2nc1Cl
  A = 6.5	B = -15	C = -4	D = 5.8

Cc1noc(C)c1NC(=O)N(C)C[C@@H]1Oc2ccc(NC(=O)CCN3CCOCC3)cc2CC(=O)N([C@H](C)CO)C[C@@H]1C
  A = -10.0	B = -1	C = 5	D = -1.9

CO[C@H]1CN(C)C(=O)c2ccc(NS(=O)(=O)c3ccccc3F)cc2OC[C@@H](C)NC[C@@H]1C
  A = -1.4	B = 2	C = -2	D = -0.1

CC(C)C[C@H]1CN(CCCC[C@@H]2CNC(=O)C(=O)N2CCc2ccccc2)C(=O)C(=O)N1Cc1ccccc1
  A = 0.3	B = -29	C = -26	D = 0.6

The listing continues.
Abbreviations – A = AF4-AF9 inh; B = rRNA inh HTS; C = rRNA inh HTS OD600; D = rRNA inh HTS RFP
CC(C)NC(=O)N(C)C[C@H]1Oc2ncc(C#CCc3ccccc3)cc2C(=O)N([C@H](C)CO)C[C@H]1C
  A = 0.3	B = 0	C = 15	D = -2.2

COc1ccc2c3c(n(C)c2c1)[C@@H](CO)N(CC1CCOCC1)CC31CCN(C(=O)Nc2ccccc2)CC1
  A = 0.1	B = 1	C = 2	D = 0.9

C[C@@H]1CN([C@H](C)CO)C(=O)c2cccc(N(C)C)c2O[C@H]1CN(C)S(=O)(=O)c1ccc(Cl)cc1
  A = 1.5	B = -5	C = -13	D = 2.2

CS(=O)(=O)Nc1ccc2c(c1)[C@H]1C[C@@H](CC(=O)NCc3ccncc3)O[C@@H](CO)[C@H]1O2
  A = -2.2	B = 8	C = 12	D = 0.0

CC(C)NC(=O)N(C)C[C@H]1OCCCC[C@H](C)Oc2ccc(NC(=O)C3CCCCC3)cc2C(=O)N([C@H](C)CO)C[C@H]1C
  A = 0.6	B = 6	C = 1	D = -3.7

COC(=O)[C@H]1[C@H](CO)[C@H]2Cn3c(ccc(-c4cccc(C(=O)N(C)C)c4)c3=O)[C@H]2N1C
  A = -17	B = 5	C = 5	D = -0.5

COc1cccc(S(=O)(=O)Nc2ccc3c(c2)C(=O)N(C)C[C@H](OC)[C@H](C)CN(Cc2ccccc2F)[C@H](C)CO3)c1
  A = -0.1	B = 4	C = -7	D = 2.3

Cc1cc(C(=O)Nc2cccc3c2O[C@H](CN(C)C(=O)Nc2c(C)noc2C)[C@H](C)CN([C@H](C)CO)C3=O)n(C)n1
  A = -4.5	B = 1	C = 9	D = -2.4

C[C@@H]1CN([C@@H](C)CO)C(=O)c2ccccc2-c2ccccc2CO[C@H]1CN(C)S(=O)(=O)c1ccc(C(F)(F)F)cc1
  A = 7.3	B = -1	C = -11	D = 8.0

COc1ccc(S(=O)(=O)Nc2ccc3c(c2)C(=O)N([C@H](C)CO)C[C@@H](C)[C@@H](CN(C)S(=O)(=O)c2cccs2)O3)cc1
  A = 0.1	B = 1	C = -4	D = -0.6

Filtered by structure, the entries above with an NH in an aromatic ring (2)
Abbreviations – A = AF4-AF9 inh; B = rRNA inh HTS; C = rRNA inh HTS OD600; D = rRNA inh HTS RFP
CCCn1c(SCC(=O)Nc2ccc(S(=O)(=O)N3CCOCC3)cc2)n[nH]c1=O
  A = -7.7	B = 10	C = 13	D = -1.8

CC(C)(C)C(=O)c1c(N)[nH]c(C(=O)c2ccccc2)c1-c1cc2ccccc2nc1Cl
  A = 6.5	B = -15	C = -4	D = 5.8

The listing continues.
Abbreviations – A = AF4-AF9 inh; B = rRNA inh HTS; C = rRNA inh HTS OD600; D = rRNA inh HTS RFP
COc1ccc(NC(=O)N2C[C@H](O)COC[C@@H]3O[C@H](CC(=O)NC4Cc5ccccc5C4)CC[C@H]32)cc1
  A = -2.1	B = -3	C = 1	D = -2.9

O=C(C[C@H]1C[C@H]2c3cc(NC(=O)C4CCC4)ccc3O[C@H]2[C@@H](CO)O1)NC1CCCC1
  A = 0.8	B = 1	C = 8	D = -1.8

COC(=O)C[C@@H]1C=C[C@H](NC(=O)c2ccccc2)[C@H](CO)O1
  A = -1.7	B = 1	C = 10	D = -0.4

C[C@@H]1CN([C@@H](C)CO)C(=O)c2cc(NS(=O)(=O)c3ccc(Cl)cc3)ccc2O[C@@H]1CN(C)Cc1ccc(C(=O)O)cc1
  A = -1.5	B = 3	C = 2	D = -1.4

COCCN1C[C@@H](CO)O[C@@H](n2cnc3c(NCCCO)ncnc32)C1
  A = -0.1	B = 10	C = 11	D = 5.1

C[C@H](CO)N1C[C@H](C)[C@H](CN(C)C(=O)Nc2ccc(F)cc2)Oc2ncccc2C1=O
  A = -9.4	B = 8	C = 2	D = -2.7

Entries of single compounds from above. Values in the order: AF4-AF9 inh | rRNA inh HTS | rRNA inh HTS OD600 | rRNA inh HTS RFP
`COc1ccc(NC(=O)N2C[C@H](O)COC[C@@H]3O[C@H](CC(=O)NC4Cc5ccccc5C4)CC[C@H]32)cc1` as listed: -2.1 | -3 | 1 | -2.9
`COCCN1C[C@@H](CO)O[C@@H](n2cnc3c(NCCCO)ncnc32)C1` as listed: -0.1 | 10 | 11 | 5.1
`C[C@@H]1CN([C@@H](C)CO)C(=O)c2cc(NS(=O)(=O)c3ccc(Cl)cc3)ccc2O[C@@H]1CN(C)Cc1ccc(C(=O)O)cc1` as listed: -1.5 | 3 | 2 | -1.4
`COC(=O)C[C@@H]1C=C[C@H](NC(=O)c2ccccc2)[C@H](CO)O1` as listed: -1.7 | 1 | 10 | -0.4

Part of the list above in order of SMILES length, lowest first.
Abbreviations – A = AF4-AF9 inh; B = rRNA inh HTS; C = rRNA inh HTS OD600; D = rRNA inh HTS RFP
O=C(C[C@H]1C[C@H]2c3cc(NC(=O)C4CCC4)ccc3O[C@H]2[C@@H](CO)O1)NC1CCCC1
  A = 0.8	B = 1	C = 8	D = -1.8

COc1ccc(NC(=O)N2C[C@H](O)COC[C@@H]3O[C@H](CC(=O)NC4Cc5ccccc5C4)CC[C@H]32)cc1
  A = -2.1	B = -3	C = 1	D = -2.9

C[C@@H]1CN([C@@H](C)CO)C(=O)c2cc(NS(=O)(=O)c3ccc(Cl)cc3)ccc2O[C@@H]1CN(C)Cc1ccc(C(=O)O)cc1
  A = -1.5	B = 3	C = 2	D = -1.4

COc1ccc(S(=O)(=O)Nc2ccc3c(c2)C(=O)N([C@H](C)CO)C[C@@H](C)[C@@H](CN(C)S(=O)(=O)c2cccs2)O3)cc1
  A = 0.1	B = 1	C = -4	D = -0.6
